Source: PubChem BioAssay
Mtb H37Rv: Mycobacterium tuberculosis H37Rv growth inhibition, cell based, confirmatory dose response (AID 1949); most inactive calls were filed without a number and no value below 0 was filed; one-dose inhibition, % at 10 µg/mL; IC50 in µg/mL for titrated hits; hit rate 1.6% among 100,000;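 active = confirmed in a dose series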;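 also: bacteria grown 7 days with compound before Alamar blue readout; 0% = untreated bacteria and 100% = reference antibiotic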
Numbers without * were called inactive; i = inactive. The list is partial. The share of hits here may be higher or lower than overall.

cpd	SMILES	Mtb H37Rv
1	O=C1C2CCCCC2C(=O)N1CC(=O)N1c2ccccc2CCc2ccccc21 (stereo not given)	i
2	COc1ccc2c(c1OC)C(=O)N1N=C(c3ccc(F)cc3)CC21 (stereo not given)	10.4%
3	O=[N+]([O-])c1ccc2c(c1)ncn2-c1cccc(Cl)c1	i
4	COc1cc(C)c(Cl)cc1S(=O)(=O)N1CCN(c2ccccc2)CC1	0.4%
5	O=C(O)C1CCCN(S(=O)(=O)c2ccc(F)cc2)C1 (stereo not given)	i
6	COc1ccccc1N1CCN(C2CCN(Cc3ccc4c(c3)OCO4)CC2)CC1	i
7	C=CCn1c(COc2ccc3ccccc3c2C)nnc1SCC(=O)Nc1ccccc1OC	i
8	Cc1cccc(-n2c(CCc3ccccc3)nnc2SCC(=O)Nc2c(C)cc(C)cc2C)c1	7.2%
9	CC(C)(C)NCCOCCOc1c(Cl)cc(Cl)cc1Cl	i
10	O=C(Cc1ccccc1)NC(=S)Nc1ccccc1C(=O)Nc1ccccc1	i

Six compounds out of the list, ordered by molar mass, falling.
cpd	SMILES	Mtb H37Rv
7	C=CCn1c(COc2ccc3ccccc3c2C)nnc1SCC(=O)Nc1ccccc1OC	i
8	Cc1cccc(-n2c(CCc3ccccc3)nnc2SCC(=O)Nc2c(C)cc(C)cc2C)c1	7.2%
6	COc1ccccc1N1CCN(C2CCN(Cc3ccc4c(c3)OCO4)CC2)CC1	i
9	CC(C)(C)NCCOCCOc1c(Cl)cc(Cl)cc1Cl	i
5	O=C(O)C1CCCN(S(=O)(=O)c2ccc(F)cc2)C1 (stereo not given)	i
3	O=[N+]([O-])c1ccc2c(c1)ncn2-c1cccc(Cl)c1	i

(further entries)
cpd	SMILES	Mtb H37Rv
11	CN1CCN(S(=O)(=O)c2ccc(N)cc2)CC1	i
12	N#CCc1ccccc1C(=O)NCCOc1ccccc1	i
13	O=C(CSc1nnnn1Cc1ccccc1)c1ccc(Br)cc1	2.3%
14	CCOc1ccccc1CN1CCN(S(C)(=O)=O)CC1	i
15	O=C(CCN1CCC(c2ccccc2)C1)c1cccs1 (stereo not given)	11.5µg/mL*
16	COc1ccc2oc(-c3ccc(NC(=S)NC(=O)COc4ccccc4)cc3)nc2c1	i
17	CCCN1CCN(C(=S)Nc2ccc(OC)c(OC)c2)CC1	i
18	CCOC(=O)c1ccc(NC(=O)NCCc2ccc(Cl)cc2)cc1	i
19	C=CCn1c2ccccc2c2nnc(SCC(=O)NCc3ccco3)nc21	i
20	CCn1ccc(C(=O)NC2=C(C#N)CCC2)n1	i

Taken from above.
Mtb H37Rv with `O=C(CCN1CCC(c2ccccc2)C1)c1cccs1` (stereo not given) : 11.5µg/mL*
Mtb H37Rv with `O=C(CSc1nnnn1Cc1ccccc1)c1ccc(Br)cc1` : 2.3%

Further structures:
cpd	SMILES	Mtb H37Rv
21	COc1ccccc1NC(=O)Cn1c(=O)oc2ccccc21	i
22	COC(=O)C1=CN(CC2CCCO2)C=C(C(=O)OC)C1c1ccc2c(c1)OCO2 (stereo not given)	5.3%
23	COc1ccc(CNc2ccc(Br)c(C)c2)c(OC)c1	i
24	CC1=CC(C)(C)N2C(=O)C3(NCCc4c3[nH]c3ccccc43)c3cccc1c32 (stereo not given)	i
25	COc1ccc(-c2cc(C(=O)NC3CCCC3)c3ccccc3n2)cc1OC	i
26	Nc1nc(-c2ccc(Cl)c(Cl)c2)nc2c1c(=O)oc1ccccc12	i
27	COc1ccc(Cl)cc1NC(=O)CSc1nnnn1-c1ccccc1	i
28	Cc1c(Br)ccc(NC(=O)c2ccc(Cl)cc2)c1C	i
29	CC(C)C(NC(=O)c1ccccc1O)C(=O)O (stereo not given)	i
30	C=CCN(C)C1CC(=O)N(c2ccc(C)c(Cl)c2)C1=O (stereo not given)	8.9%
31	CCC(C)NC(=O)c1ccccc1NC(=O)C(C)Sc1ccccc1 (stereo not given)	i
32	COc1cc(/C=C2/C(=O)NC(=O)N(C3CCCCC3)C2=O)ccc1O	i
33	Cc1ccc(-c2nn(CC(=O)Nc3cccc(C(F)(F)F)c3)c(=O)c3ccccc23)cc1	i
34	CC(C)(C)C(=O)Oc1ccc(-c2ccccc2)cc1Br	i
35	O=C(Cc1ccc(Cl)cc1)Nc1ccc(CN2CCCCC2)cc1	i
36	COc1ccc(Cl)cc1NS(=O)(=O)c1ccc(C)c([N+](=O)[O-])c1	1.1%
37	Cc1cc(=O)oc2cc(OCc3nnc(-c4ccccc4)o3)ccc12	0.8%
38	COc1ccc(NC(=O)CSc2nnc(NC(C)=O)s2)c([N+](=O)[O-])c1	i
39	CCn1c(CNC(=O)Cc2ccc(OC)cc2)nnc1SCC(=O)Nc1ccc(C(=O)OC)cc1	i
40	O=S(=O)(Nc1ccccc1Cl)c1ccccc1	0.6%
41	Fc1ccccc1COc1ccc(Br)cc1CNCC1CCCO1 (stereo not given)	13.4%
42	CCCc1cc2c(cc1NC(=O)c1ccccc1Sc1ccccc1C#N)OCO2	i
43	O=C1CC(c2nc3ccccc3n2Cc2ccccc2F)CN1c1ccccc1 (stereo not given)	1.6%
44	Cc1ccccc1OC(=O)c1ccccc1[N+](=O)[O-]	i
45	CC(C)(C)OC(=O)NNC(=S)Nc1cccc2ccccc12	i
46	CSCCC(NC(=O)c1ccccc1)C(=O)OCC(=O)Nc1cccc2ccccc12 (stereo not given)	7.0%
47	O=C(CSc1nnc(-c2ccccc2Cl)o1)NCc1ccccc1	i
48	COc1ccc(-c2cc(C(F)(F)F)c3c(N)c(C(=O)c4ccccc4)sc3n2)c(OC)c1	i
49	C=CCc1cccc(Cl)c1OCCSc1ncccn1	0.5%
50	COC(=O)c1ccc(NC2=NS(=O)(=O)c3ccccc32)cc1	i
51	CCOc1ccccc1N1CCN(C(=O)C2CCN(Cc3ccccc3F)CC2)CC1	i
52	O=C(Oc1ccccc1[N+](=O)[O-])c1ccc(F)cc1	i
53	Cc1ccc(-c2nc(SC(CC(=O)O)c3ccccc3)n[nH]2)cc1 (stereo not given)	i
54	Cc1cc(C)c(OCC(=O)Nc2cccc(NC(=O)c3ccccc3C)c2)c(Br)c1	17.5%
55	CC(=O)CC(=O)c1c(C)cc(C)cc1C	i
56	Cc1cc(C)cc(NS(=O)(=O)c2ccc(NC(=O)COc3ccccc3C(C)C)cc2)c1	9.3%
57	Cc1ccccc1CN(c1ccc(C(=O)Nc2cccnc2)cc1)S(C)(=O)=O	i
58	O=C(Nc1ccc2c(c1)OCO2)C(=O)N1CCCCC1	i
59	CCN1CCN(CCCCOc2ccc(Br)cc2C(C)C)CC1	i
60	CC(=O)NC1C(=O)N(CC(C)C)c2ccccc21 (stereo not given)	i

Down the list, quoted from above:
Mtb H37Rv, compounds 51–56: i, i, i, 17.5%, i, 9.3%

New compounds follow.
cpd	SMILES	Mtb H37Rv
61	O=C(CCc1ccc(S(=O)(=O)NC2CCCCC2)cc1)N1CCN(c2ccccc2)CC1	0.4%
62	COc1cccc(OC)c1C(=O)Nc1ccc(-c2nc3ccccc3s2)cc1	i
63	Cc1cc(C(=O)NC2CCN(C)CC2)cs1	i
64	CC(C(=O)Nc1ccc(C(=O)N(C)C)cc1)c1ccccc1 (stereo not given)	i
65	Nc1ncnc(Nc2cccc(Cl)c2Cl)c1[N+](=O)[O-]	i
66	COc1cc(C=O)cc(Br)c1OC(=O)c1ccco1	6.2%
67	O=C(O)c1ccccc1SC1CC(=O)N(Cc2ccccc2)C1=O (stereo not given)	i
68	CCOc1ccc(N(CC(=O)O)S(=O)(=O)c2ccc(Cl)cc2)cc1	i
69	Cc1cccc(S(=O)(=O)N2CC(C)OC(C)C2)c1 (stereo not given)	i
70	CC(=O)Nc1ccc(S(=O)(=O)N2CCN(C(=O)N(c3ccccc3)c3ccccc3)CC2)cc1	i
71	C=CCOc1ccc2ccccc2c1CNC(C)(C)CO	i
72	COc1ccc(-c2cc3nc4c(c(=O)n3[nH]2)CCC4)cc1	i
73	COC(=O)c1ccc(C(=O)OC)c(NC(=O)C(C)Sc2ccccc2)c1 (stereo not given)	i
74	Cc1ccc(S(=O)(=O)Nc2ccc(NC(=O)c3ccc(C)c(C)c3)cc2)cc1	i
75	CCC(=O)Nc1nonc1-c1nc2ccccc2n1Cc1ccccc1F	8.8%
76	CC(C)Oc1ccc(C(=O)N2CCN(c3ccc([N+](=O)[O-])c(NC(C)c4ccccc4)c3)CC2)cc1 (stereo not given)	i
77	CN1CCN(NC(=S)Nc2ccc(Cl)cc2Cl)CC1	i
78	COC(=O)C1=C(C)NC(=O)NC1c1cc(Cl)cc(Br)c1OC (stereo not given)	i
79	COc1ccc(CC(=O)NC(=S)Nc2ccc(S(N)(=O)=O)cc2)cc1	i
80	CC(C)C(NC(=O)c1ccccc1)c1nnc(SCC(=O)Nc2cccc(C(F)(F)F)c2)n1C (stereo not given)	i
81	CN1CCN(c2ccc([N+](=O)[O-])cc2NC(=O)c2ccccc2)CC1	i
82	CCOc1ccc(C2NC(=O)CCC2[N+](=O)[O-])cc1 (stereo not given)	i
83	COc1cccc(NC(=O)COc2ccccc2C(=O)NCCOc2ccccc2)c1	i
84	CCOc1ccc(NC(=O)c2cccc(OC)c2OC)cc1	i
85	O=C(c1cc(Br)ccc1Cl)N1CCN(c2ccccc2)CC1	i
86	Cc1ccc(S(=O)(=O)N2CCCCC2C(=O)O)cc1 (stereo not given)	i
87	Fc1c(F)c(F)c(Cn2ccc(NC(=S)NCc3ccc(Cl)cc3)n2)c(F)c1F	i
88	COc1ccc(Cl)cc1C(=O)Nc1nc2c(s1)CCCC2	38.4%
89	O=C(CCC1CCCCC1)NCc1ccncc1	i
90	CCN(CC)CC#CCC(C)OCCC#N (stereo not given)	3.2%
91	Cc1cc(C)c(C(N)=O)c(Nc2cccc(Br)c2)n1	i
92	Cc1ccc(C(=O)NC(=S)Nc2ccc(O)c(-c3nc4cc(C)cc(C)c4o3)c2)c(C)c1	i
93	Cc1ccc(Cl)c(OC(C)C(=O)NNC(=S)Nc2ccc(Cl)cc2)c1 (stereo not given)	i
94	CC(Oc1ccc(Cl)cc1Cl)C(=O)Nc1ccc(F)c(F)c1 (stereo not given)	i
95	CCOC(=O)c1c(N)n[nH]c1-c1ccccc1	i
96	O=C(c1ccc(Cl)cc1[N+](=O)[O-])n1cnc2ccccc21	i
97	O=C(Cn1nc(-c2ccccc2)c2ccccc2c1=O)Nc1ccccn1	i
98	O=C(Nc1ccc(C(F)(F)F)cc1)C1CCN(C(=O)c2ccc([N+](=O)[O-])cc2)CC1	43.9%
99	COc1ccc(C(=O)NC(=S)Nc2cccc(C(=O)O)c2C)cc1[N+](=O)[O-]	2.0%
100	O=C(/C=C/c1ccco1)Nc1cccc(-c2nc3cc(Cl)ccc3o2)c1	i

Reprinted at random: two compounds from above.
cpd	SMILES	Mtb H37Rv
100	O=C(/C=C/c1ccco1)Nc1cccc(-c2nc3cc(Cl)ccc3o2)c1	i
98	O=C(Nc1ccc(C(F)(F)F)cc1)C1CCN(C(=O)c2ccc([N+](=O)[O-])cc2)CC1	43.9%

New compounds follow
cpd	SMILES	Mtb H37Rv
101	O=C(Nc1scc(-c2ccccc2)c1C(=O)Nc1ccc(Cl)cc1)c1ccco1	i
102	C=CCn1c(SCCC)nc2sc3c(c2c1=O)CCC3	i
103	Cc1ccc(C(=O)C2(C)C3c4c(ccc5ccccc45)OC(=O)C32C(=O)c2ccccc2)cc1 (stereo not given)	3.1%
104	O=C(O)CCc1ccc(-c2ccc(F)cc2)n1Cc1ccco1	i
105	C=CCNC(=O)C(CC)c1ccccc1 (stereo not given)	i
106	CC(C)(C)C1CCC(C(=O)Nc2cccnc2)CC1 (stereo not given)	5.8%
107	CCCC(=O)Nc1ccc(Br)c(C)c1	5.3%
108	COc1ccc(C(=O)NC(=S)Nc2ccc(Cl)cn2)cc1OC	9.4%
109	CCOC(=O)c1cnc2c(OC)cccc2c1NCC(C)O (stereo not given)	i
110	Cc1cc(C)c(S(=O)(=O)Nc2ccc(C#N)c(Cl)c2)c(C)c1	i
111	O=C(CSc1nnc(-c2cccnc2)o1)NCc1ccccc1	i
112	COC(=O)c1cccc(NC(=O)c2ccc(NC(C)=O)cc2)c1C	i
113	Cn1c(=O)c2c(nc(SCC(=O)Nc3ccc(F)cc3)n2C)n(C)c1=O	4.0%
114	COCCNC(=S)NNC(=O)c1cccs1	0.1%
115	O=C(CSc1nnnn1-c1cccc2ccccc12)N1CCOCC1	i
116	O=C(NCCN1CCCC1)c1ccc2c(c1)OCCO2	i
117	CCN(CC)c1sc(S(=O)(=O)c2ccc(C)cc2)nc1S(=O)(=O)c1ccc(C)cc1	3.2%
118	O=C1c2ccccc2-c2nc3ncnn3c(-c3ccc(F)cc3)c21	i
119	CC(C)(C)NC(=O)c1ccc2c(c1)C(=O)N(C1CCCCC1)C2=O	i
120	CC(C)(C)C1CCC(C(=O)NCc2cccnc2)CC1 (stereo not given)	i
121	O=C(CNc1ccc2c(c1)oc1ccccc12)c1ccc2c(c1)OCO2	29.6%
122	Cc1cc(C)cc(NC(=O)C2CCN(C(=O)c3ccccc3)CC2)c1	i
123	CN(C)c1ccc(NC(=O)Nc2cccc(Cl)c2)cc1	i
124	COc1ccc(-n2ncc3c(NCc4cccs4)ncnc32)cc1	i
125	COCCCNC(=O)c1c(NC(=O)c2ccccc2Br)sc2c1CCCC2	5.6%
126	O=C(c1ccc2ccccc2c1)N(C1CCCCC1)C1CCCCC1	43µg/mL*
127	O=C(CN1C(=O)COc2ccc(Cl)cc21)NC1CCCCC1	i
128	CSc1cccc(NC(=O)CSc2nnc(C)s2)c1	i
129	O=C(c1ccccc1)N1CCN(c2ccc(C(F)(F)F)cc2[N+](=O)[O-])CC1	i
130	Cc1cccc(-c2nnc(SCC(=O)Nc3cccc4ccccc34)n2C)c1	i
131	Cc1ccc(NC(=O)Nc2ccc(Cl)cc2)cc1Cl	i
132	CCN(CC)S(=O)(=O)c1cc(C(=O)NC2CCCCC2)ccc1Br	i
133	CCc1nc2c(o1)NC(N)=C(C#N)C21CCN(C)CC1	i
